Source: PubChem BioAssay
Mtb hypoxia rep – PubChem AID 1159583 | M. tuberculosis hypoxia-regulated fluorescent reporter, fluorescence | fluorescence inhibition, % (test concentration not listed) | 300,000 tested, 0.1% active;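 active = 35 to 45% if threefold the growth effect, above 45% if 1.5-fold the growth effect; inactive = the rest, general growth blockers included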;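 note: wells of about 50 µL received 100 nL stock; 0% = vehicle wells and 100% = reference inhibitor wells; whole bacteria with a GFP reporter of the hypoxia response; strong numbers were not always called active; many hits fall short of the cut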
Sa ugtP lethal – growth inhibition of ugtP-null S. aureus, primary screen, RN4220 ugtP deletion, OD600. 16 h; some inactives read as strong as hits. growth inhibition, % (no concentration beside the values). 330,000 tested, 0.54% active;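 active = z-score under -3 and OD600 up to 0.15 on both plates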;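 note: plate controls were untreated wells for no effect and antibiotic for full effect; wells of about 80 µL received 100 nL stock; the first replicate is given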
BJeLR lethal – MLPCN primary cell-based screen for lethality selective to Ras in HRASV12 cells | BJeLR (HRASV12) viability, CellTiter-Glo ATP luminescence, 48 h; reference of the scale not given here | inhibition, % (test concentration not listed) | 300,000 tested, 0.17% active | AID 1554, 2009;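 active = replicate mean above 50%; inconclusive = above 50% but judged a plate artefact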;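 note: 50 nL library stock added to about 25 µL; numbers are from one replicate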
Autofluor counter – flagged as autofluorescent in microsphere protease counterscreen. AID 624483. fluorescence intensity (concentration not given with the values). 360,000 tested, 3.1% active. compound autofluorescence counterscreen, microsphere flow cytometry; active compounds read high;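 active = at least 3 SD above the mean of all compounds, about 16000 in these data; inconclusive = too few beads counted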;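 note: 100 nL of 1 mM stock went into each well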
RN4220 kill – growth inhibition of S. aureus RN4220, primary screen, OD600. 16 h. inhibition, % (test concentration not listed). 330,000 tested, 0.33% active;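 active = z-score of -3 or lower and OD600 up to 0.18 on both plates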;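 note: plate controls were untreated cells for no effect and reference antibiotic for full effect; stock transfer was 100 nL into about 80 µL; one replicate is shown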
PrP 5UTR inh – inhibition of PrP 5' UTR reporter expression; inhibition, % (test concentration not listed); 340,000 tested, 0.35% active; cell-based PrP 5' UTR mRNA reporter, plate reader; AID 488862, 2010;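 active = every replicate at 50% or more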;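 note: 0 = median of the neutral control wells; tested in H4 reporter cells; numbers are from one replicate; inactives centre near -14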
Mtb hypoxia rep growth – further read-out of Mtb hypoxia rep, marked with its call; growth inhibition, %; measured here: M. tuberculosis growth (absorbance);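 0% = vehicle and 100% = reference antibiotic; read after six days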
An asterisk follows results filed as active; ? = inconclusive; · = no result given.

Every second line gives: Mtb hypoxia rep | Mtb hypoxia rep growth | Sa ugtP lethal | BJeLR lethal | Autofluor counter | RN4220 kill | PrP 5UTR inh
- CCc1nonc1NC(=O)c1oc2cc(C)c(C)cc2c1C
    1 | -2 | 2 | 16 | 4671 | 15 | -25
- CN(C)CCCNC(=O)C(=O)NCC1CCCO1 (centres undefined)
    -2 | 2 | 4 | 5 | 4344 | 3.0 | -13
- Cc1ccc2nc(/C(C#N)=C\c3ccc(N4CCOCC4)o3)[nH]c2c1
    · | · | 6 | 15 | 13254 | 2.8 | -51
- COc1ccc(C(c2c(NC(=O)c3ccco3)sc(C)c2C)N2CCOCC2)cc1 (centres undefined)
    9 | 0 | 7 | · | ? | -0.1 | -22
- O=C(NCc1ccco1)c1ccc(Cl)c(S(=O)(=O)N2CCOCC2)c1
    -4 | -42 | 1 | 5 | 5804 | 1.8 | -38
- O=c1[nH]c2ccccc2nc1C=Cc1ccc(Cl)cc1
    2 | 15 | -3 | · | · | 3.0 | ·
- CC1CCN(C(=O)CSc2nc3c(c(=O)n2C)SC(C)C3)CC1 (centres undefined)
    8 | -1 | 2 | 8 | 5131 | 0.1 | -10
- COc1ccc2[nH]c3c(c2c1)CCN1C(=O)C(CC(=O)NCC24CC5CC(CC(C5)C2)C4)C[C@H](C(=O)N(C(C)C)C(C)C)[C@@]31C (some centres undefined)
    -12 | -1 | -23 | · | 3093 | -4.6 | 17
- CC(C)(C)NC(=O)C(c1ccc(O)cc1)N(C(=O)CCC(=O)Nc1ccccn1)c1ccc(F)cc1 (centres undefined)
    -3 | -4 | 12 | 0 | 4299 | 7.2 | -3
- CCCCOc1cc(=O)[nH]c(=O)[nH]1
    1 | -1 | 5 | -1 | 4574 | 6.8 | -1
- O=C(O)/C=C/c1ccc(S(=O)(=O)Nc2ccccc2C(=O)Nc2ccc(F)cc2)cc1
    5 | 11 | 15 | -10 | 3371 | 5.6 | -27
- CCN(CC(=O)Nc1c(F)cccc1F)C(=O)C1CCN(S(=O)(=O)c2ccccc2C(=O)OC)CC1
    4 | 1 | -1 | · | 6325 | 2.3 | 5
- CN(Cc1cccc(Cl)c1Cl)C(=O)c1ccccc1SCC(=O)N1CCCC1
    -5 | -1 | -1 | · | ? | 2.6 | 1
- CC(CN1CCN(CC(C)C(=O)c2ccccc2)CC1)C(=O)c1ccccc1 (centres undefined)
    7 | 4 | 5 | · | 3571 | 3.9 | -31
- CCOC(=O)C1(O)CC(C)=NN1C(=O)c1cccc(Br)c1 (centres undefined)
    -3 | -5 | -2 | -14 | 3291 | 4.1 | -12
- Clc1ccccc1CSc1nnc(Cn2cnc3ccccc32)n1-c1ccccc1
    · | · | -7 | -5 | 4375 | 3.9 | -8
- CC(C)c1ccc2[nH]c(O)c(N=NC(=O)c3cccc(S(=O)(=O)Nc4cccc(Cl)c4)c3)c2c1
    -3 | 2 | 9 | -9 | 4789 | 6.4 | -17
- COc1ccccc1CN1C(=O)C(=O)N(Cc2cccc(C)c2)C1=O
    -1 | 1 | 2 | 0 | 4549 | 5.2 | -10
- Cc1sc2ncnc(NC(Cc3c[nH]c4ccccc34)C(=O)O)c2c1C (centres undefined)
    4 | 2 | 1 | · | · | 4.8 | ·
- Nc1nc(CN2CCN(Cc3ccccc3)CC2)nc(N2CCCc3ccccc32)n1
    -2 | 3 | 9 | -6 | 2768 | -0.2 | -5
- CC(C)(C)n1ncc2c(=O)n(CC(=O)NCc3ccccc3Cl)cnc21
    -8 | 9 | -1 | -6 | 3175 | 2.7 | -49
- COc1cc(/C=N/NC(=O)c2ccncc2)ccc1OC(=O)c1cccc(F)c1
    · | · | · | -6 | 5795 | · | -1
- COc1ccc(C=NOCC(=O)Nn2c(C)nc3ccccc3c2=O)cc1
    -7 | -7 | 11 | · | · | 4.4 | ·
- Cc1cc(=O)oc2cc(OCC(=O)NC3CCCCC3)c(Cl)cc12
    17 | 10 | -6 | · | 4047 | -1.2 | -24
- NC(=S)NN=Cc1ccccc1OC(=O)c1cc2ccccc2oc1=O
    8 | 3 | -4 | · | · | 4.5 | ·
- Cc1cc(=O)[nH]c(SCC(=O)Nc2ccccc2C#N)c1C#N
    3 | -10 | 7 | 7 | 21510* | 4.6 | -14
- CC1(C)CC(=O)c2sc(N3CCCCC3)nc2C1
    7 | 6 | 3 | 2 | 2408 | 11 | -47
- COc1ccc(N(CC(=O)Nc2cc(C)on2)S(=O)(=O)c2ccc(Cl)cc2)cc1
    · | · | -8 | 3 | 4320 | -0.9 | -33
- Fc1ccc(Oc2cnns2)cc1
    1 | -1 | 5 | 2 | 2274 | 1.8 | -24
- CCOC(=O)c1ccc(NC(=O)CSc2nnc(NC(=O)c3ccc(S(=O)(=O)N4CCOCC4)cc3)s2)cc1
    -5 | 0 | 3 | -15 | 7305 | 3.3 | -16

Four entries from above, sorted by length of the SMILES, highest first:
Every second line gives: Mtb hypoxia rep | Mtb hypoxia rep growth | Sa ugtP lethal | BJeLR lethal | Autofluor counter | RN4220 kill | PrP 5UTR inh
- CCOC(=O)c1ccc(NC(=O)CSc2nnc(NC(=O)c3ccc(S(=O)(=O)N4CCOCC4)cc3)s2)cc1
    -5 | 0 | 3 | -15 | 7305 | 3.3 | -16
- CC(C)(C)NC(=O)C(c1ccc(O)cc1)N(C(=O)CCC(=O)Nc1ccccn1)c1ccc(F)cc1 (centres undefined)
    -3 | -4 | 12 | 0 | 4299 | 7.2 | -3
- COc1ccc(C(c2c(NC(=O)c3ccco3)sc(C)c2C)N2CCOCC2)cc1 (centres undefined)
    9 | 0 | 7 | · | ? | -0.1 | -22
- COc1cc(/C=N/NC(=O)c2ccncc2)ccc1OC(=O)c1cccc(F)c1
    · | · | · | -6 | 5795 | · | -1

(continued)
Every second line gives: Mtb hypoxia rep | Mtb hypoxia rep growth | Sa ugtP lethal | BJeLR lethal | Autofluor counter | RN4220 kill | PrP 5UTR inh
- CC(=O)/C(=N/Nc1ccccc1)Sc1nnc(C(O)c2ccccc2)n1-c1ccccc1 (centres undefined)
    · | · | · | 8 | 2280 | · | -1
- CCc1nn2c(N3CCOCC3)cc(C)nc2c1-c1ccccc1
    4 | 5 | 4 | -7 | 4235 | 3.2 | -2
- CC1CC(C)CN(C(=O)CCc2ccccc2)C1 (centres undefined)
    16 | 10 | 3 | 6 | 4238 | 8.8 | -18
- O=C(NC1CCCC1)C(c1ccsc1)N(C(=O)Cc1cccs1)c1cccc(F)c1 (centres undefined)
    1 | 5 | -4 | 6 | 10543 | 3.5 | -32
- COc1ccc(OC)c(NC(=O)/C=C/c2ccc(S(=O)(=O)N3CCOCC3)cc2)c1
    -5 | 6 | 5 | · | 5836 | -2.0 | -23
- Fc1ccc(-c2csc3ncnc(Nc4ccc(N5CCOCC5)cc4)c23)cc1
    4 | 4 | 3 | -3 | 8433 | 2.1 | -6
- Cc1nnsc1-c1nnc(SCC(=O)c2ccccc2)n1C1CC1
    -1 | -4 | 13 | -4 | 5776 | 4.3 | -23
- Cc1cccc(-n2nc([N+](=O)[O-])c(N3CCN(C(=O)c4ccco4)CC3)[n+]2[O-])c1
    -10 | 0 | 6 | 1 | 4332 | 8.5 | -13
- CC(=O)Oc1ccc(C2OC(=O)c3ccccc3N2C(C)=O)cc1 (centres undefined)
    1 | 10 | 0 | -7 | 6031 | 5.9 | -10
- CCCCn1c(SCC(=O)NCc2ccco2)nc2c(sc3ccccc32)c1=O
    4 | 13 | -7 | 6 | 22504* | 3.3 | 3
- COc1cccc(OC)c1OCC(C)CNCC1CCCO1 (centres undefined)
    -8 | -9 | -4 | -2 | 10312 | 2.8 | -24
- CC(=O)Nc1ccc(S(=O)(=O)N(C)CC(=O)Nc2nc3ccccc3[nH]2)cc1
    1 | 4 | 10 | · | 5179 | 2.7 | -17
- COc1cc(SC)ccc1C(=O)Nc1ncc(Cl)cc1Cl
    18 | 17 | -2 | 2 | 2578 | 4.1 | -80
- CCOC(=O)c1[nH]c2ccc(C)cc2c1NC(=O)CN1CCCCC1
    · | · | -4 | -4 | 2231 | 3.8 | 0
- c1ccc(CSc2ccc(-c3cccs3)nn2)cc1
    6 | 2 | 9 | -2 | 2488 | 6.1 | -93
- CC1CCN(C(=O)c2cc(-c3ccccc3O)on2)CC1
    2 | 6 | -12 | 1 | 4636 | 4.7 | -95
- O=C(NCCc1ccc(Cl)cc1)c1cc2ccccn2n1
    18 | 3 | -1 | -4 | 4856 | 11 | -18
- Cc1ccc(Sc2ccc(/C=C3/C(=O)NN(c4ccccc4)C3=O)o2)cc1
    6 | 8 | -1 | 13 | 4658 | -0.6 | -22
- Cc1cc(=O)n2c3ccccc3n(CC(O)CN3CCCCC3)c2c1C#N (centres undefined)
    6 | 6 | -2 | -2 | 12628 | 0.9 | -20
- CCCCCc1cc(=O)oc2c(C(CCN(CC)CC)c3ccc(OC)cc3)c(OC)cc(OC)c12 (centres undefined)
    · | · | -44 | 0 | 4160 | -9.1 | -6
- C=CCNC(=S)NNC(=O)c1cc(C)nc2ccccc12
    4 | 2 | 4 | -15 | 2097 | 1.5 | -1
- COc1ccc(CNC(=O)CSc2nnc3c(n2)[nH]c2ccc(C)cc23)cc1
    -15 | 2 | 0 | -5 | 5540 | 2.7 | -18
- Cc1cc(=O)oc2cc(OCC(=O)OCC(=O)NCCc3ccccc3)ccc12
    12 | 1 | 10 | -2 | 4613 | 6.5 | -16
- Cc1ccc(C(=O)C2CCN(CC(=O)Nc3ccccc3C)CC2)cc1
    -16 | -3 | 0 | 8 | 5799 | 0.6 | -8
- N#Cc1ccc(-c2ccc(OCC(=O)NCC(=O)Nc3ccc(F)c(F)c3F)cc2)cc1
    11 | 7 | -15 | -9 | 2510 | 3.6 | -10
- Cc1nc(SCC(=O)O)c(C#N)c(C)c1CC(=O)c1ccccc1
    6 | -2 | 5 | 7 | 4103 | 3.8 | -22
- CCN1C(=O)CC(c2ccco2)Sc2ccccc21 (centres undefined)
    7 | -4 | 8 | -2 | 17133* | 2.5 | -31
- C=CCN=C(NC#N)SCc1ccccc1
    · | · | 6 | -6 | 2407 | 1.1 | -12
- COc1ccc(CNC(=O)[C@H](Cc2ccccc2)NC(=O)C2CCN(C(=O)[C@H](C)N)CC2)cc1
    · | · | -4 | -1 | 4079 | 9.3 | 5
- O=C(Cc1cccc(NC(=O)C2CCCN(C(=O)C3CC3)C2)c1)Nc1cccc(C(=O)N2CCCC2)c1 (centres undefined)
    22 | 11 | 1 | · | 2980 | 2.6 | -18
- COc1cc(OC)c(C(=O)N2CCCC2)cc1OC
    -3 | 4 | -2 | 8 | 3122 | -7.3 | -12
- CCn1c(SCC(=O)N2CCN(c3ccccc3)CC2)nnc1-c1c[nH]c2ccccc12
    2 | 10 | 0 | 4 | 7275 | -2.3 | -17
- CC(=O)c1ccc(N2CCC(C)CC2)c(F)c1
    14 | 13 | 9 | -2 | 4930 | 9.2 | -5
- O=C(OC1CCOC1=O)C1CCN(S(=O)(=O)c2c(Cl)cccc2Cl)CC1 (centres undefined)
    · | · | · | 15 | 6669 | · | 14
- N#Cc1ccc(C23OCCN2CCn2nc4ccccc4c23)cc1 (centres undefined)
    -2 | 0 | -4 | · | 2742 | 0.2 | -10

In the list so far, these contain two or more sulfur atoms:
Every second line gives: Mtb hypoxia rep | Mtb hypoxia rep growth | Sa ugtP lethal | BJeLR lethal | Autofluor counter | RN4220 kill | PrP 5UTR inh
- CC1CCN(C(=O)CSc2nc3c(c(=O)n2C)SC(C)C3)CC1 (centres undefined)
    8 | -1 | 2 | 8 | 5131 | 0.1 | -10
- CCOC(=O)c1ccc(NC(=O)CSc2nnc(NC(=O)c3ccc(S(=O)(=O)N4CCOCC4)cc3)s2)cc1
    -5 | 0 | 3 | -15 | 7305 | 3.3 | -16
- O=C(NC1CCCC1)C(c1ccsc1)N(C(=O)Cc1cccs1)c1cccc(F)c1 (centres undefined)
    1 | 5 | -4 | 6 | 10543 | 3.5 | -32
- Cc1nnsc1-c1nnc(SCC(=O)c2ccccc2)n1C1CC1
    -1 | -4 | 13 | -4 | 5776 | 4.3 | -23
- CCCCn1c(SCC(=O)NCc2ccco2)nc2c(sc3ccccc32)c1=O
    4 | 13 | -7 | 6 | 22504* | 3.3 | 3
- c1ccc(CSc2ccc(-c3cccs3)nn2)cc1
    6 | 2 | 9 | -2 | 2488 | 6.1 | -93

Compounds as they come. Share with any hit: about 4%.
